# High-throughput results as filed in PubChem.
# TRPV1 PAM – HTS Assay for Compounds that Act as Potentiators of the Vanilloid Receptor 1. hit rate 0.02% among 320,000. AID 540277, 2011. Transient receptor potential cation channel subfamily V member 1 (Homo sapiens), Q8NER1. potentiation, % at 8.33 µM. TRPV1-expressing cells, Fluo-8 calcium influx, capsaicin EC20 potentiation; host cell line not named in the record; control for the full effect not named in the record; active means potentiation above 80%; inconclusive means 30% to 80%; inactive means below 30%; also: 0% is about no effect
# Target sequence (Q8NER1 whole entry, looked up): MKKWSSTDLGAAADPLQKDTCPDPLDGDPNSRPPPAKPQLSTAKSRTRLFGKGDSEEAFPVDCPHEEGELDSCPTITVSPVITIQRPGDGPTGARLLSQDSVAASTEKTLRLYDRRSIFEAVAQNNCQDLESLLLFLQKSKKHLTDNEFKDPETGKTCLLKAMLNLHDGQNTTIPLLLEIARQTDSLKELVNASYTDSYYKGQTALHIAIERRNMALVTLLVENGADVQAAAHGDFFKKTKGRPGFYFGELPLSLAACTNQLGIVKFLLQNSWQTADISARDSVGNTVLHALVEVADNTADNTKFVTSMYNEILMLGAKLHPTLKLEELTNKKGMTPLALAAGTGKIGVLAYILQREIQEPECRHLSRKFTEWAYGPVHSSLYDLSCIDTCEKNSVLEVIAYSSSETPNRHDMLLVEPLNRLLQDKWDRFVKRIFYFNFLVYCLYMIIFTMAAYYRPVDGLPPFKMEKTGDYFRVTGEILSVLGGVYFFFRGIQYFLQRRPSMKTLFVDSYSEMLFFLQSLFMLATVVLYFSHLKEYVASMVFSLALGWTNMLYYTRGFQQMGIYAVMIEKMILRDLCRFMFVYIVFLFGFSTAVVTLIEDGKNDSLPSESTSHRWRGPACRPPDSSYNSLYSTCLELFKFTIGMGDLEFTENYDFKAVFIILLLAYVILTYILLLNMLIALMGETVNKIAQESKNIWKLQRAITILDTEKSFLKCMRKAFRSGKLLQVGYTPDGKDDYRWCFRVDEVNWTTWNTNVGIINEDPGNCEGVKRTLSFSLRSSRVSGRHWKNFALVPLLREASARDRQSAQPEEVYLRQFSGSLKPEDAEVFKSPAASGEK
#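 Cells expressing TRPV1 were dye-loaded with Fluo-8 and read kinetically: 10 s baseline, 3 min after compound (agonist portion), then 2 min after EC20 capsaicin (allosteric enhancer portion). Calcium-bound dye fluorescence at 480/520 nm.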
# Menin-MLL FL inh – qHTS Assay for Inhibitors Targeting the Menin-MLL Interaction in MLL Related Leukemias: Competition With Fluorescein Labeled MLL-derived Peptide; Fluorescence polarization, fluorescein-MLL peptide displacement from menin; FP activity change, % at 61.4 µM; 290,000 tested, under 10 active; AID 1766, 2009; inconclusive = falling polarisation curve, or a change in total fluorescence; inactive = total fluorescence flat and polarisation flat or rising; no compound was filed as active; the % refers to the polarisation; negative = inhibition;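 also: % of control where 0% means no effect; inhibitors lower the polarisation; unlabelled MLL peptide was the positive control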
# Sfp inh – qHTS Assay for Inhibitors of Bacillus subtilis Sfp phosphopantetheinyl transferase (PPTase); 4'-phosphopantetheinyl transferase ffp (Bacillus subtilis), Q9F4F7; Biochemical Sfp PPTase activity, qHTS; Potency, µM, inactives show max response, negative = inhibition, hits mostly inhibitors; hit rate 3.5% among 310,000; AID 1490, 2009; active = well fitted inhibition curve with a large enough effect; inconclusive = small, poorly fitted or top-dose-only effect, or another doubt; inactive = no such curve, though single readings can be large or run the other way;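 also: the enzyme is Sfp with the accession as filed and its product quenches rhodamine fluorescence; potency is read from the fitted curve at half-maximal effect; 0% = enzyme reaction without inhibitor and -100% = no enzyme wells; top concentration of the series not given in the record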
#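 Reaction rates are the 30-min fluorescence difference (ex 525, em 598 nm) in wells containing 15 nM Sfp, 5 uM rhodamine-CoA and 12.5 uM BHQ-2-YbbR at pH 7.6 with 10 mM MgCl2.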
# ClpP mod – qHTS Assay for Activators of ClpP; ATP-dependent Clp protease proteolytic subunit (Bacillus subtilis (strain 168)), P80244; purified B. subtilis ClpP, FRET peptide cleavage, 20 min; Potency, µM (top dose mostly 57.5 µM), without a hit: at the highest dose activity change, negative = active; hit rate 1.9% among 340,000; AID 651965, 2013; active = well fitted falling curve with a large enough effect; inconclusive = small, poorly fitted or top-dose-only effect; inactive = no such curve, though single readings can be large or run the other way; also: potency is read from the fitted curve at half-maximal effect; the source files actives as falling curves though it sought activators and does not explain the sign; nearly all actives have a fitted effect of over 65% in size; many hits overshoot -100%
# Target sequence (P80244 whole entry, looked up): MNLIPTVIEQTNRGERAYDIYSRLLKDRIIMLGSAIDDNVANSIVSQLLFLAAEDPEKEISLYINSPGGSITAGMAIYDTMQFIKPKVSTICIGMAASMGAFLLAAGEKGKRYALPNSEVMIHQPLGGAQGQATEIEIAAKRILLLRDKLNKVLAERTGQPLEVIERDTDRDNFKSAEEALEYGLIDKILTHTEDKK
#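 Purified B. subtilis ClpP, 10 microg/mL final in Tris/HCl pH8 with KCl, BSA, glycerol and Tween-20, cleaved an Abz/nitrotyrosine-quenched decapeptide. Fluorescence (ex 320, em 430) was read at 0 and 20 min at room temperature. Delta was normalized to 5.8 microM ADEP and DMSO/no-enzyme controls.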
# CtBP-E1A blk – qHTS Assay for Inhibitors of the CtBP/E1A Interaction; AlphaScreen GST-E1A/His-CtBP binding, 1536-well; hits give low values; control for the full effect not named in the record; activity change, % (concentration not given with the values); hit rate 0.49% among 340,000; in the data active means activity change below about -65%; inconclusive means about -30% to -65%; inactive means above about -30%; also: % is scaled to controls: 0 for no effect and ±100 for the full control effect
#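 In 5 uL wells, 23 nL compound meets equimolar GST-E1A and His-CtBP (5X stock 125 nM each) for 2 h, 37 °C. Beads (5X, 50 ug/mL) then 1 h, 37 °C, dark.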
# gsp ag – qHTS for Agonist of gsp, the Etiologic Mutation Responsible for Fibrous Dysplasia/McCune-Albright Syndrome: qHTS; gsp mutant cells, cAMP HTRF, 30 min; control for the full effect not named in the record; Potency, µM (highest dose often 76.9 µM), for the others: top-dose activation (cAMP increase), usual class: activators; hit rate 0.13% among 340,000; active = well fitted activation curve with a large enough effect; inconclusive = small, poorly fitted or top-dose-only effect, or another doubt; inactive = no such curve, though single readings can be large or run the other way; cell line not stated here;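 also: phosphodiesterase inhibitor Ro 20-1724 added with compounds to block cAMP breakdown; potency is read from the fitted curve at half-maximal effect; nearly all actives have a fitted effect of over 60% in size; about a fifth of the inactives were tested at one dose only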
#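 Cells stably selected in G418 were plated at 2000/well, grown 16-24 hr, then given compounds in DMSO with the PDE inhibitor […] (300 uM solution added) for 30 min at 37C; cAMP was read by HTRF.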
# gsp antag – qHTS for Antagonists of gsp, the Etiologic Mutation Responsible for Fibrous Dysplasia/McCune-Albright Syndrome: qHTS; hit rate 0.4% among 340,000; Potency, µM (highest dose often 76.9 µM), for inactives: at the top dose activity change, negative = inhibition, actives largely listed as inhibitors; gsp-mutant cells, cAMP HTRF, 30 min; control for the full effect not named in the record; AID 624288, 2012; active = falling curve of any shape with a large fitted effect; inconclusive = falling curve, mostly with a smaller effect; inactive = flat or rising curve; cell line not stated here;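 also: intracellular cAMP measured with PDE inhibitor Ro 20-1724 present during compound exposure; potency is read from the fitted curve at half-maximal effect; % is scaled to controls: 0 for no effect and ±100 for the full control effect; nearly all actives have a fitted effect of over 65% in size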
#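 Cells, 2000/well, grown 16–24 h in DMEM 10% FBS with 0.5 mg/ml G418, then compounds plus […] (300 uM addition stock), 30 min at 37C. cAMP read by HTRF (cAMP-d2 and anti-cAMP antibody-K in lysis buffer) after 30 min RT.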
# Active calls of the source: *; ? = inconclusive; · = no result given; & = joins results of further samples; [ ] = dose if it differs, or a comment.
SMILES,TRPV1 PAM,Menin-MLL FL inh,Sfp inh,ClpP mod,CtBP-E1A blk,gsp ag,gsp antag
CC1CN(C(=S)Nc2ccc(Cl)cc2)CC(C)O1 (centres undefined),?,0.3,-4.7%,1.9%,-1.0,-41.2%[inhibitor],3.5%
OCCCNc1nc(-c2ccccc2)c2cc(Br)ccc2n1,-22.9,-8.9,-2.3%,·,-2.3,16.5%,0.0%
C=CCNC(=O)c1ccc2c3n(nc2c1)-c1ccccc1CO3,?,0.0,-12.5%,3.7%,-4.3,·,-9.9%
O=C(NCCN1CCOCC1)Nc1ccccc1,-6.6,4.0,18.6%,-0.1%,3.1,16.6%,17.3%
COc1ccc2nc(NC(=O)CCc3cc(OC)c(OC)c(OC)c3)sc2c1,9.9,0.7,?,·,2.2,-7.9%[15.4 µM],-18.3%
CCC1N=C(SC)NC(C)=C1C(=O)c1ccccc1 (centres undefined),2.8,4.0,1.9%,2.8%,·,-5.0%,0.2%
CCN(c1ccccc1)S(=O)(=O)c1ccc(Cl)c(NC(=O)CSc2n[nH]c(N)n2)c1,4.3,4.3,19.5%,-1.7%,-3.1,0.7%,-14.3%
CC1(C)CC(=O)C(C2C3=C(CC(C)(C)CC3=O)Oc3ccccc32)=C(O)C1 (centres undefined),11.0,4.2,-21.2%,-1.7%,-0.2,-20.1%,-8.0%
CCC1SC(N)=NC1=O (centres undefined),1.8,-1.9,1.6%,0.3%,2.6,21.1%,4.1%
CC(Cc1ccccc1)NC(=O)c1ccc([N+](=O)[O-])cc1 (centres undefined),-18.5,0.6,16.8%,-4.9%,2.5,11.8%,9.4%
COc1cc(OC)c(C(=O)OCC(=O)NC2CCCC2)cc1OC,10.4,-5.9,11.4%,-0.9%,6.0,8.2%,3.5%
Cc1ccc(OCC(=O)Nc2ccccc2F)cc1,·,·,·,0.7%,8.9,-9.6%[15.4 µM],4.4%
O=C(COC(=O)c1ccc(S(=O)(=O)N2CCCCC2)cc1)NC1CCCCC1,·,·,·,-1.0%,-1.1,?,·
COc1ccc(CNC(=O)Cn2cccc2C(=O)c2ccccc2C)cc1,-18.7,-2.4,14.2%,0.1%&-0.4%,·,4.8%,5.6%
COc1ccc(CNC(=O)CN2C(=O)NC(C)(c3cccc4ccccc34)C2=O)cc1OC (centres undefined),-8.3,1.0,8.8%,·,-25.0,-2.2%[15.4 µM],1.0%
Cc1[nH]n(-c2cccc(Cl)c2)c(=O)c1C=NCc1ccco1,0.6,7.6,-9.2%,-0.9%,·,-10.4%,2.7%
Cc1ccc(S(=O)(=O)N(C)C)cc1NC(=O)CN1C(=O)NC2(CCCCCCC2)C1=O,4.3,·,6.2%,-5.3%,-9.5,-41.7%[inhibitor],11.6%
Cc1cc(C)n(C(N)=NC(=O)c2ccccc2)n1,·,·,·,-0.2%,1.6,3.6%,·
COc1ccc(NC(=O)C(=O)NNC(=O)c2cccs2)cc1,1.0,-0.6,-2.3%,·,-4.6,-33.6%[inhibitor],0.4%
CC(C)(CNc1ccc(C(F)(F)F)cc1[N+](=O)[O-])N1CCOCC1,-0.7,·,-3.8%,-1.9%,-12.6,-18.0%,-10.3%
COc1cccc(CNC(=O)CN2C(=O)COc3ccc(S(=O)(=O)N4CCC(C)CC4)cc32)c1,-1.4,-1.1,23.7%,-1.3%,4.1,-19.0%,-2.0%
O=C(NCc1ccc(Cl)cc1)c1ccc(-c2ccccc2C(F)(F)F)o1,2.4,1.0,-8.8%,-13.6%,3.9,15.1%,-4.3%
COC(=O)C1=C(C)N(Cc2ccccc2)C(=NCc2cccc(Cl)c2)N[C@H]1c1ccccc1,-12.1&1.6,-0.8&0.1,7.5%&14.6%,0.6%,-0.5,·,5.6%
COc1cccc(CN(C)C(=O)CCN=C2NS(=O)(=O)c3ccccc32)c1OC,11.8,·,·,-1.6%,·,-26.2%,-5.6%
Cc1cc(Cl)c(OCCCN(C)C)c(Br)c1,6.7,0.4,-7.1%,-0.3%,4.2,22.5%,18.1%

# Continued (2 carried over from the part before).
SMILES,TRPV1 PAM,Menin-MLL FL inh,Sfp inh,ClpP mod,CtBP-E1A blk,gsp ag,gsp antag
COc1cccc(CN(C)C(=O)CCN=C2NS(=O)(=O)c3ccccc32)c1OC,11.8,·,·,-1.6%,·,-26.2%,-5.6%
Cc1cc(Cl)c(OCCCN(C)C)c(Br)c1,6.7,0.4,-7.1%,-0.3%,4.2,22.5%,18.1%
COc1ccc([N+](=O)[O-])cc1N(CC(=O)N1CCOCC1)S(C)(=O)=O,27.6,0.1,-14.1%,·,-1.2,-4.2%[15.4 µM],10.5%
O=C(O)COc1ccccc1C(Nc1ccccn1)c1cc(Cl)c2cccnc2c1O (centres undefined),3.7,6.4,-93.9%,2.6%,-84.8*,-8.6%,0.3%
COc1ccccc1-c1nnc(SCC(=O)N2CCCCC2)o1,1.5,·,16.1%,-6.2%,-3.6,-14.2%,-0.3%
COc1cc(/C=N/N2CCN(Cc3ccc(C)cc3)CC2)cc(OC)c1O,-6.4,-1.7,-82.7%,-3.9%,-19.6,2.0%,-8.4%
O=C(COC(=O)C1CC(=O)N(Cc2ccccc2)C1)Nc1ccc2c(c1)OCO2 (centres undefined),11.8,1.7,17.3%,1.0%,1.7,16.7%,7.7%
O=C(CC(Nc1ccccc1)c1ccc(F)cc1)c1ccccc1 (centres undefined),3.6,-0.8,-2.9%,0.2%,6.1,-11.2%,-7.9%
COc1ccc(/C=N/Nc2nc3ccccc3c(=O)n2-c2ccccc2)cc1OC,7.7,-1.0,-3.4%,-3.3%,-9.2,?,26.6%
COc1ccccc1NC(=O)CS(=O)(=O)c1cn(CC(=O)N2CCCC2)c2ccccc12,-8.6,·,2.6%,6.0%,1.0,3.5%[15.4 µM],-3.0%
CCc1c(C)sc(NC(=O)/C=C/c2ccc3c(c2)OCO3)c1C(=O)OC,-1.2,-0.1,?,-0.6%,19.8,-20.7%,-2.4%
O=C(O)CNC(=O)c1ccc(NS(=O)(=O)c2ccc3ccccc3c2)cc1,-8.0,0.4,2.1%,·,-30.0,-20.6%[15.4 µM],4.2%
CNc1nc(C)c(C(C)=O)cc1C#N,-5.1,-0.7,4.6%,-3.6%,-0.2,4.6%,6.9%
O=S(=O)(NCC(Nc1ccc(Cl)cc1)c1ccccc1)c1ccc(Cl)cc1 (centres undefined),3.6,20.9,15.8%,-3.4%,8.0,-9.5%,?
CNS(=O)(=O)c1cccc(C(=O)OCC(=O)c2c(N)n(Cc3ccccc3)c(=O)n(C)c2=O)c1,·,·,·,-3.2%,-3.5,-47.5%[inhibitor],-20.9%
C[C@@H]1CN([C@H](C)CO)C(=O)c2c(c3ccccc3n2C)-c2ccccc2CO[C@H]1CN(C)Cc1cccc(C(=O)O)c1,·,·,·,-4.1%,5.6,-22.1%,·
O=C(COC(=O)/C=C/c1ccc(F)cc1)NCc1ccc2c(c1)OCO2,·,·,·,·,-0.4,?,5.8%
Cc1cc(=O)[nH]c(SCC(=O)OCc2ccccc2)c1C#N,15.9,5.0,10.0%,·,-1.6,-5.1%[15.4 µM],-21.4%
CCCCOc1ccc(/C=N/NC(=S)Nc2cccc(C)c2C)cc1,3.7,0.2,3.9%,-1.9%,-1.2,-26.0%,-6.4%
COc1ccccc1-c1cc(C(F)(F)F)nc(NCc2cccs2)n1,5.7,-0.3,4.3%,?,8.8,-10.8%,-15.3%
CCCCN1C(=O)C(CC(=O)NCCN2CCOCC2)CC(C(=O)N(CC)CC)=C1C (centres undefined),·,·,·,-1.3%,3.7,-0.6%,·
O=C(Nc1ccc(Cl)c(Cl)c1)c1csc(-c2ccccc2)n1,-12.4,-0.9,-10.3%,-0.1%,6.2,-40.9%[inhibitor],-13.5%
Cc1cccc(NS(=O)(=O)c2cccc(C(=O)N3CCN(S(=O)(=O)c4ccccc4)CC3)c2)c1,19.4,·,·,-12.6%,5.7,-25.6%,-7.7%
O=C(c1cccc(C(F)(F)F)c1)N1CCC(O)(CS(=O)(=O)Cc2ccc(Cl)cc2)CC1,-3.5,1.1,11.3%,-0.4%,7.5,?,10.3%
CCc1oc(C(=O)O)cc1COC,4.0,0.2,7.8%,-2.7%,-9.0,-22.0%,14.5%
Cc1cc(C)n(C(=O)c2ccc([N+](=O)[O-])cc2Cl)n1,3.5,2.5,7.3%,·,-18.5,2.8%,-1.2%
COC(=O)c1c(C)c[nH]c1C,0.6,-14.1,-8.6%,0.5%,4.7,·,-14.5%
# Going on with the list.
SMILES,TRPV1 PAM,Menin-MLL FL inh,Sfp inh,ClpP mod,CtBP-E1A blk,gsp ag,gsp antag
S=c1[nH]nc(-c2ccco2)n1/N=C/c1ccccc1,9.3,1.9,-17.1%,·,1.4,9.8%[15.4 µM],-6.0%
COc1ccc(CCNC(=O)CSc2nnc(C(C)N(C)C)n2Cc2ccccc2)cc1OC (centres undefined),-3.0,-5.2,2.7%,·,3.2,0.7%[15.4 µM],5.2%
COc1ccc(C(N)=S)cc1,-2.6,7.5,-17.2%,-1.2%,-3.8,3.1%,6.2%
Cc1ccc(N/N=C/c2cccnc2)cc1,17.2,3.8,-14.9%,-1.7%,24.5,-6.8%,4.7%
OCc1ccccc1OCCCN1CCC(Cc2ccccc2)CC1,-0.9,1.0,2.8%,·,-22.8,29.3%,5.9%
CCOC(=O)C1(Cc2ccccc2C)CCCN(C(=O)CCn2nccc2C)C1 (centres undefined),6.5,-2.1,23.4%,·,1.4,-15.5%[15.4 µM],-3.8%
CCc1ccc(NC(=S)Nc2cc(OC)c(NC(=O)C(C)C)cc2OC)cc1,7.8,-0.5,-24.4%,·,6.8,7.5%[15.4 µM],·
CC(C)CN(C(=O)C1CCCC1)C1CCS(=O)(=O)C1 (centres undefined),?,·,·,-2.0%,-4.8,-5.1%[15.4 µM],10.6%
